High-throughput results deposited in PubChem by several laboratories.
MT1-MMP act inh: blockers of MT1-MMP proenzyme processing, primary screen, HT1080 RFP-PRO-GFP cells, GFP/RFP fluorescence. GFP/RFP ratio fluorescence, overnight; percent of plate control window, DMSO zero. Matrix metalloproteinase-14 (Homo sapiens), P50281. AID 651647, 2012. 360,000 tested, 0.061% active. GFP/RFP ratio change, % at 20 µM;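 active = GFP/RFP ratio change of at least 30% with cell ATP level not reduced by more than half and red fluorescence within 50% of control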; note: strong numbers were not always called active
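Assay system: HT1080 RFP-PRO-GFP cells. Benchmarks: DMSO vehicle wells and RFP-L50D-GFP reporter cell wells. Times: overnight cell settling, then overnight compound exposure, 37 °C, 5% CO2. Compound: 20 µM single dose, 1% DMSO. Read-out basis: GFP/RFP fluorescence ratio.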
Env fusion inh: inhibitors of HIV-1 Env-driven cell-cell fusion, primary screen, HeLa-JRFL effector, CEM21 target cells, luciferase; AID 651610, 2012; 360,000 tested, 1.1% active; inhibition, % at 12.3 µM;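 active = mean replicate inhibition score of at least 50 and every replicate individually at or above 50; inconclusive = only one of the two criteria met; inactive = mean below 50 and not all replicates reaching 50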;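 note: 0% = plate neutral controls and 100% = maraviroc near 300 nM; one replicate is shown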
eIF4H inh: human eIF4H binding inhibitors, primary screen, translation initiation inhibitor project, biochemical, uHTS, fluorescence polarization; Eukaryotic translation initiation factor 4H (Homo sapiens), Q15056; eIF4H fluorescence polarization binding assay; inhibition, % at 35 µM; 290,000 tested, 0.94% active;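 active = 50% or more with normal probe brightness, or confirmed in later tests; inconclusive = above 50% with abnormal brightness, or retests that disagree; inactive = below 50% or failed in later tests; about a fifth of its hits are not listed in these tables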;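 note: calls also rest on retests at 20 µM and on dose response follow-up; 0% = protein and probe with vehicle and 100% = probe without protein; strong numbers were not always called active; many hits fall short of the cut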
Rce1 inhib: yeast Rce1p protease inhibitors, primary screen, biochemical, fluorescence, cell-free homogeneous. CAAX prenyl protease 2 (Saccharomyces cerevisiae (strain ATCC 204508 / S288c)), Q03530. yeast membranes, quenched prenylated peptide cleavage fluorescence. calls only. 290,000 tested, 0.27% active. AID 2563, 2010;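 active = fall in fluorescence gain of 50% or more versus controls, with final raw signal at or below 3038400; inconclusive = same 50% fall but final raw signal above 3038400; inactive = fall in fluorescence gain under 50%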;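 note: plate controls were neutral control wells for no effect and wells lacking membranes for full effect; tested at 10 µM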
PABP polyA inh: PABP poly(A) RNA binding inhibitors, primary screen, biochemical, fluorescence polarization, uHTS; Polyadenylate-binding protein 1 (Homo sapiens), P11940; inhibition, % at 35 µM; 290,000 tested, 1% active;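 active = 50% or more with normal probe brightness, or confirmed in later tests; inconclusive = above 50% with abnormal brightness, or retests that disagree; inactive = below 50% or failed in later tests; about a fifth of its hits are not listed in these tables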;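 note: calls also rest on retests at 20 µM and on dose response follow-up; controls were probe without protein and protein plus probe with vehicle; some compounds called inactive have numbers as strong as hits; many hits fall short of the cut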
Target sequence (P11940 whole entry, looked up): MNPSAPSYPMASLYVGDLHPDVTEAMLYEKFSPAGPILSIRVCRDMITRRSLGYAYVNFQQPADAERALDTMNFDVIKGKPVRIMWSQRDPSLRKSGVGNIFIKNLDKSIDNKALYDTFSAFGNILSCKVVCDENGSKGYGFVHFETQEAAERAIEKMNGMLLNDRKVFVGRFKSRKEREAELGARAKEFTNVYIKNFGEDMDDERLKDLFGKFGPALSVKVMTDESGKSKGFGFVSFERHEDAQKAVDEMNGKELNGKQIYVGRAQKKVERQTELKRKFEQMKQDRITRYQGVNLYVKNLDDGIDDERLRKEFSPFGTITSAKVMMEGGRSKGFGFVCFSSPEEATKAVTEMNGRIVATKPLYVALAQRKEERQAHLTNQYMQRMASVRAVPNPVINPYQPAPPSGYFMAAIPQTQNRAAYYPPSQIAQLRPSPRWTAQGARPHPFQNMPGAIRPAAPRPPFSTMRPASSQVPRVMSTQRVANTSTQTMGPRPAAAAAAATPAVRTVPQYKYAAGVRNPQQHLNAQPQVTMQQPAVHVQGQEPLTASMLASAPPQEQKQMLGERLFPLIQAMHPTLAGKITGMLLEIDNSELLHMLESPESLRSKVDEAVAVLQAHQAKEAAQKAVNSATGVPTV
Yeast UUG start: modulators of yeast start codon fidelity, primary screen, whole organism, S. cerevisiae, single point, plate reader | S. cerevisiae UUG-firefly luciferase reporter, luminescence/redox ratio | activity score, % at 18.7 µM | 350,000 tested, 0.13% active;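 active = replicate mean at a twofold rise or more, about +100% in these data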;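 note: firefly luciferase made from a UUG start codon reports start codon fidelity; reporter light over untreated wells divided by growth signal over untreated wells; some hits fall short of that in this replicate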
CSC inhib: cancer stem cell viability inhibitors, primary screen, luminescence; cancer stem cell-like cells viability; inhibition, % at 7.5 µM; 300,000 tested, 1.1% active; AID 2717, 2010;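 active = mean at 75% or more and at least half the replicates too; inconclusive = mean and replicates disagree; tested in HMLE shEcad cells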;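 note: 0% = median of negative and 100% = median of positive control wells; the first replicate is given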
MT1-MMP act inh RFP: further read-out of MT1-MMP act inh, marked with its call; RFP signal change, %; measured here: RFP expression control read;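 0 = vehicle wells; hits needed this value within 50% of zero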
The depositor's hits bear a star; i = inactive; ? = inconclusive; · = no result given; & = joins results of further samples; [ ] = another dose, or the depositor's remark. This is a subset; the hit share may differ from the screen's.

smiles	Env fusion inh	eIF4H inh	Yeast UUG start	MT1-MMP act inh	Rce1 inhib	PABP polyA inh	CSC inhib	MT1-MMP act inh RFP
O=C(Nc1ccc(F)cc1Cl)C1CCN(C(=O)Nc2ccccc2)CC1	0.0	-6.9	-12.5	6.2	i	-0.7	0.7	4.4
Cc1ccnc2nc(C(=O)Nc3ccc4c(c3)OCO4)nn12	·	-0.9	-17.6	6.1	i	0.3	13.9	2.6
O=C(NC1CC1)c1ccc(NS(=O)(=O)c2ccc(F)cc2)cc1	5.8	·	·	2.1	i	·	4.1	-0.3
O=C(c1ccccc1NS(=O)(=O)c1ccc([N+](=O)[O-])cc1[N+](=O)[O-])N1O[C@@H]2C=C[C@H]1C2	12.2	·	-10.5	2.2	·	·	·	1.7
Cc1cc(NC(=O)CCC(=O)N(c2ccccc2F)C(C(=O)NC2CCCC2)c2ccccc2)no1 (configuration not stated)	6.2	4.0	-14.1	2.1	i	0.1	·	6.4
Cc1onc(-c2ccccc2)c1C(=O)Nc1ccc(S(=O)(=O)Nc2nccs2)cc1	3.4	-4.3	-7.2	0.5	i	0.3	2.2	5.6
CCOC(=O)N1CCN(S(=O)(=O)c2ccc(OCC(=O)OC)cc2)CC1	-1.7	8.1	-7.9	-3.3	·	2.0	-15.9	7.3
Cn1c(=O)c2c(nc(CN3CCN(c4ccc(F)cc4)CC3)n2Cc2ccccc2F)n(C)c1=O	-24.2	0.6	-0.6	-6.1	i	1.3	48.9	1.9
Cc1onc(-c2c(Cl)cccc2Cl)c1C(=O)N=C(N)N1CCOCC1	7.9	-6.4	-6.4	-1.6	i	2.1	2.1	1.0
COC(=O)C(NC(=O)C(C)NC(=O)OCc1ccccc1)C(C)C (configuration not stated)	2.3	-9.7	·	-0.1	i	-5.3	-9.1	1.8
COc1cc(CNCc2ccccc2Cl)ccc1OCC(=O)NC1CCCCC1	24.8	1.3	-5.1	0.9	i	-9.8	1.5	-1.5
C[C@H]1CN([C@@H](C)CO)S(=O)(=O)c2ccc(C#Cc3ccccn3)cc2O[C@H]1CN(C)Cc1ccc(F)cc1	-30.7	·	7.5&11.9	-2.7	·	·	·	-1.0
CCOc1cc(/C=N/NC(=O)CN2CCOCC2)ccc1OCc1ccccc1	-13.9	-14.0	-15.8	-0.3	i	-1.4	-4.8	0.9
CCCCCn1c(=O)[nH]c2cc(C(=O)NCc3ccco3)ccc2c1=O	7.4	-10.0	-7.4	-3.7	i	-13.3	-7.2	-7.3
O=C(NCCN1CCOCC1)c1cc2cc([N+](=O)[O-])ccc2s1	-2.7	-0.1	·	-1.4	i	-0.7	2.5	1.3
CC(NC(=O)c1cccs1)C1CCCO1 (configuration not stated)	-17.7	-4.0	0.9	-0.1	i	0.1	-3.2	4.9
Cc1ccc(NC(=O)N2CCCC2C(=O)NCC2CCCCC2)cc1 (configuration not stated)	-3.3	-3.2	-5.8	1.2	i	6.0	6.6	2.7
Nc1ccc(SC(F)(F)F)cc1C(=O)c1ccccc1	·	-8.8	·	6.7	i	-8.4	-2.2	5.2
N#CCC(=O)N/N=C/c1cccc(Oc2ccccc2)c1	-11.2	1.6	·	-1.9	i	-3.1	-15.5	0.3
O=C(O)CCC(=O)N1CCN(c2ncccc2C(F)(F)F)CC1	7.5	-6.8	-16.1	1.6	i	3.8	-13.4	3.7
CN(C(=O)CSc1nc(N)cc(N)n1)C1CCS(=O)(=O)C1 (configuration not stated)	-22.3	-3.9	-15.9	-1.9	i	-11.1	·	3.8
Cc1nnc(SCC(=O)N(C)c2c(N)n(Cc3ccccc3)c(=O)[nH]c2=O)n1Cc1ccccc1	3.3	-1.3	-12.1	-4.5	i	8.2	3.4	0.5
NC(=O)C1=C[C@@H](c2ccc(Br)cc2)C[C@@H](OCCCCO)O1	-59.6	0.2	-13.5	0.5	i	4.9	9.7	2.3
COc1ccccc1CNC(=O)c1cn(C)c2ccc(S(=O)(=O)N3CCCCC3)cc2c1=O	19.7	-4.0	·	·	i	-4.5	-2.5	·
COc1ccccc1NC(=O)COc1cc(C)nc(C(C)C)n1	·	-2.1	-7.6	1.1	i	2.3	-8.4	5.0
COC(=O)C[C@H]1C[C@@H]2c3cc(NC(=O)NC4CCCC4)ccc3O[C@@H]2[C@@H](CO)O1	-10.1[16.7 µM]	·	-6.6&0.2	-1.0	·	·	·	-3.0
CCSc1ncnc2c1sc1nc3c(cc12)COC(C)(C)C3	-26.9	-3.5	·	-7.3	i	3.1	-12.2	-5.8
COc1ccccc1NC(=O)Nc1nnc(C(C)C)s1	-49.3	-0.8	·	2.8	i	4.9	3.8	0.7
Cc1ccc(S(=O)(=O)N2CCN(C(=O)CN3CCOCC3)C2c2ccccc2)cc1 (configuration not stated)	·	1.2	9.4	7.1	i	-6.7	-8.3	-0.8
O=C(N/N=C/C1CC=CCC1)c1cc(-c2cccnc2)nc2ccccc12 (configuration not stated)	-10.9	-17.7	·	-1.8	i	-4.2	-5.8	7.9

Fetched by compound from above (5):
smiles	Env fusion inh	eIF4H inh	Yeast UUG start	MT1-MMP act inh	Rce1 inhib	PABP polyA inh	CSC inhib	MT1-MMP act inh RFP
CCOc1cc(/C=N/NC(=O)CN2CCOCC2)ccc1OCc1ccccc1	-13.9	-14.0	-15.8	-0.3	i	-1.4	-4.8	0.9
COc1cc(CNCc2ccccc2Cl)ccc1OCC(=O)NC1CCCCC1	24.8	1.3	-5.1	0.9	i	-9.8	1.5	-1.5
COc1ccccc1CNC(=O)c1cn(C)c2ccc(S(=O)(=O)N3CCCCC3)cc2c1=O	19.7	-4.0	·	·	i	-4.5	-2.5	·
Cc1onc(-c2c(Cl)cccc2Cl)c1C(=O)N=C(N)N1CCOCC1	7.9	-6.4	-6.4	-1.6	i	2.1	2.1	1.0
CCOC(=O)N1CCN(S(=O)(=O)c2ccc(OCC(=O)OC)cc2)CC1	-1.7	8.1	-7.9	-3.3	·	2.0	-15.9	7.3

Later entries:
smiles	Env fusion inh	eIF4H inh	Yeast UUG start	MT1-MMP act inh	Rce1 inhib	PABP polyA inh	CSC inhib	MT1-MMP act inh RFP
C=CCCC(=O)N1C[C@H]2CON(C)[C@H]2C[C@H]1c1cccc(Nc2ccccc2)c1	-52.5	·	-14.9	-1.8	·	·	·	0.0
CCOC(=O)C1CCCN(C(=O)C2c3ccccc3Oc3ccccc32)C1 (configuration not stated)	-20.4	-0.1	12.6	-178.3	i	1.7	18.0	7.6
O=C1CNC(=O)N1	15.2	1.4	-10.4	6.6	i	-4.7	3.2	8.9
COc1ccc(C(=O)ON=C2CCN(c3ccc([N+](=O)[O-])cc3)CC2)cc1	-95.5	-6.4	-12.7	3.0	i	-0.1	20.8	-2.1
CCOC(=O)C1(Cc2ccc(OC)cc2)CCN(C(=O)CCn2ccc(C)n2)CC1	-10.8	-2.3	·	-0.5	i	-1.6	3.0	-1.2
COCCOc1cc(NC(=O)c2sccc2Oc2ccc([N+](=O)[O-])cc2F)c(Cl)cc1Cl	·	-11.0	-18.6	4.3	i	-9.9	25.6	-6.1
CCOC(=O)C1=CCN(S(=O)(=O)c2ccc(C)cc2)C1c1cccc2ccccc12 (configuration not stated)	34.0	·	-5.9	-3.6	·	·	·	-11.9
COc1ccc(-n2c(SCC(=O)Nc3cc(C)on3)nc3c([nH]c4ccccc43)c2=O)cc1	-14.7	-8.9	-9.7	-4.4	i	-3.2	-18.0	-2.3
COC(=O)C1=COC(C)C2CN3CCc4c([nH]c5cc(OC)c(OC)cc45)C3CC12 (configuration not stated)	·	?	-12.9	-46.7	i	?	-3.8	16.0
Cc1nc(OCC(C)C)c2sc3nc4c(cc3c2n1)COC(C)(C)C4	-87.1	-0.5	-7.1	3.2	i	9.7	57.8	1.8
COc1ccc(C2CC(=O)NC(=O)C2)cc1	1.7	0.7	-13.7	-4.2	i	1.5	-12.6	-1.7
Fc1ccc(-c2nnn(Cc3nc4ccccc4s3)n2)cc1	-48.4	0.7	-6.0	0.7	·	-12.4	-0.8	6.5
CCn1c(C)c(C(C)=O)c(N2CCN(c3cccc(Cl)c3)CC2)nc1=S	-28.1	?	-13.2	-7.8	i	?	-11.0	1.3
O=C(Nc1ccc(N2CCCC2)cc1)C(c1ccccc1)c1ccccc1	20.5	1.7	-0.8	-5.4	i	3.7	-3.8	3.8
COc1ccc(-c2cc(=O)oc3c(C)c(OCc4nn[nH]n4)ccc23)cc1	0.6	0.1	-14.9	0.6	i	17.1	-11.5	3.4
Cc1nnc(SCC(=O)Nc2ccccc2)n1CCc1ccccc1	·	-5.7	-14.5	-0.5	i	-7.3	-11.6	5.1
Cn1c(SCC(=O)Nc2ccccc2F)nnc1C1CCCCC1	8.0	-0.6	-18.3	-1.9	i	12.1	9.8	-0.7
O=C(c1cccc(S(=O)(=O)N2CCCC2)c1)N1CCN(c2ccccc2)CC1	-58.0	-0.8	7.6	-8.7	i	-19.7	17.0	-6.2
COc1ccccc1CNC(=O)[C@H](CCSC)NC(=O)[C@@H]1Cc2ccccc2CN1	·	3.0	-8.0	0.8	i	10.4	-8.7	0.7
Cc1cc(F)ccc1S(=O)(=O)Nc1c(C)n(C)n(-c2ccccc2)c1=O	3.4	-4.3	0.6	-0.2	i	3.3	4.3	5.8
COCc1cc(CN2CCCC(C(=O)Nc3ccc(-c4ccco4)cc3)C2)ccc1OC (configuration not stated)	-10.3	-41.5	-5.7	-4.8	i	-56.3	1.1	4.2
O=C(O)CC1SC(=Nc2ccccc2)N(c2ccccc2)C1=O (configuration not stated)	·	6.4	-16.4	-1.4	i	9.2	·	-1.0
CCSc1nnc(-c2ccccc2N)c(=O)[nH]1	·	0.2	-16.0	-3.3	i	28.5	-11.3	-5.1
